# From PubChem
# Choline anaer gr – growth inhibitors of anaerobic choline-fed gram-negatives, minimal medium, absorbance. calls only. AID 1963822, 2024. Gram-negative bacterium anaerobic choline minimal medium; active compounds read low; many inactives read as strong as hits in the columns shown. actives 0.2% (n = 55,000);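 active = growth z-score on choline under -2 at 7 or 20 h with little or no fall on glycerol, limits in tiers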;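 note: stock transfer was 300 nL into about 50 µL; the organism is E. coli; final concentration not given here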
# Choline anaer gr early – further read-out of Choline anaer gr, marked with its call; z-score; measured here: choline growth z-score, timepoint 1;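 score of optical density at 7 h as mean of two plates; lower means less growth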
# * marks the source's active call; other numbers are inactive results; i = inactive; & = joins results of further samples. Not all compounds are listed; count on the stated rates, not on these rows.
# Every second line gives: Choline anaer gr	Choline anaer gr early
[1] Cc1oc(C2CCN(C(=O)C3CCCCC3)CC2)nc1C(=O)N(C)C
 : i	0.43
[2] CCOC(=O)c1[nH]c(C)c(CCC(=O)N2CCCC(C(=O)NCCN(C)C3CCCCC3)C2)c1C (stereo unspecified)
 : i	0.87
[3] O=C(Nc1cnn(-c2ncc(N3CCCC3)cn2)c1)C1CCCC1
 : i	0.49
[4] O=C(Cn1nc2nc(N3CCCC3)ccn2c1=O)N1CCc2ccccc21
 : i	-2.28
[5] O=C(CSc1nc2cc(C(=O)NC3CCCC3)ccc2c(=O)n1CC1CCCO1)c1cccc(Cl)c1 (stereo unspecified)
 : i	0.58
[6] CCn1nc(C)c2c1c(=O)n(CCc1ccccc1)c(=O)n2CC(=O)Nc1ccsc1C(=O)OC
 : i	1.01
[7] O=C(c1ccc(-c2cc(NC3CCCCC3)ncn2)cc1)N1CCCC1
 : i	0.31
[8] CC(C)(C)S(=O)(=O)c1ccc(NCc2ccc3c(c2)OCO3)nn1
 : i	0.88
[9] COC(=O)c1c(C)[nH]c(C(=O)N2CCC(CC(=O)NC(C)c3ccccc3)CC2)c1C (stereo unspecified)
 : i	0.18
[10] Cc1ccc(C2CCCN2S(=O)(=O)c2ccc(C)c(C)c2)cc1 (stereo unspecified)
 : i	0.31
[11] Cc1csc(-c2cc(S(=O)(=O)NCc3ccc(Br)cc3)c(C)s2)n1
 : i	0.7
[12] Cc1nn(-c2cccc(F)c2)c2sc(C(=O)OCCOc3ccccc3)cc12
 : i	0.99
[13] C=CCN1CC(c2nc3ccccc3n2CC(O)COc2ccc(C)c(C)c2)CC1=O (stereo unspecified)
 : i	-1.46
[14] O=C(c1cccc(Cl)c1)N1CCN(c2ncnc3c2c(-c2ccccc2)cn3-c2ccccc2)CC1
 : i	-0.63
[15] O=C(NCCCc1ccccc1)c1c(O)c2c3c(sc2[nH]c1=O)CCCC3
 : i	1.09
[16] O=C(NCCCN1CCCC1=O)c1cc2ccccn2n1
 : i	-1.51
[17] CC(=O)Nc1ccc(S(=O)(=O)N2CCC(N3CCN(Cc4ccc(F)cc4)C3=O)CC2)cc1
 : i	1.05
[18] CN(CCc1noc(C(=O)NCc2ccccc2)n1)C(=O)COc1ccccc1
 : i	-0.94
[19] Cc1ccc2[nH]c(C)c(C(O)CN3CCC(Cc4ccccc4)CC3)c2c1 (stereo unspecified)
 : i	-0.05
[20] O=C(CN1C(=O)CSc2cccn2-c2ccccc21)NC1CCN(Cc2ccccc2)CC1
 : i	0.76
[21] CCCc1cc(C2CCCN2Cc2cccc(OCC)c2O)no1 (stereo unspecified)
 : i	0.12
[22] Cn1nc(C(=O)NCc2ccc(Cl)cc2)c2c1CCN(S(=O)(=O)c1ccccc1)C2
 : i	-0.42
[23] CC1(C(=O)NC2CCCCC2)Cn2c(cc3sccc32)C(=O)N1CC1CCCO1 (stereo unspecified)
 : i	0.36
[24] CNCC(O)c1ccc(O)c(O)c1 (stereo unspecified)
 : i	0.8&0.17&0.53
[25] Cc1cccc(NC(=O)c2sc3nc(N4CCCC4)c4c(c3c2N)CCCC4)c1
 : i	-0.11
[26] CCC(CO)NCc1ccc(-c2cc(Cl)ccc2Cl)o1 (stereo unspecified)
 : i	-1.3
[27] Cc1nn(-c2nc3ccccc3n2C)c2c1C(c1ccc(F)cc1)CC(=O)N2 (stereo unspecified)
 : i	1.06
[28] COC(=O)c1c(NC(=O)c2nc(SC(C)C)ncc2Cl)sc2c1CCCC2
 : i	0.9
[29] O=C(Nc1cccc(-c2nc(-c3ccccc3)no2)c1)C1CC(=O)N(c2ccccc2)C1 (stereo unspecified)
 : i	-0.57
[30] Cc1ccccc1CSc1nc2ccncc2n1Cc1ccc(F)cc1
 : i	-0.37

# (listing goes on)
# Every second line gives: Choline anaer gr	Choline anaer gr early
[31] Cc1ccc(C(=O)Nc2ccc(-n3c(C)nc4ccccc4c3=O)cc2)cc1Br
 : i	-1.28
[32] Cc1ccccc1C(=O)Nc1cnc2oc(-c3ccc(C(C)C)cc3)nn2c1=O
 : i	0.59
[33] CCSc1nnc(-c2nn(C)c3c2CN(S(=O)(=O)c2ccccc2F)CC3)n1C
 : i	-1.74
[34] COc1cc(C2CC(=O)Nc3c2c(C)nn3-c2ccc3nnc(C)n3n2)ccc1O (stereo unspecified)
 : i	0.8
[35] CCc1nc(CN2C(=O)COc3ccc(S(=O)(=O)NC(C)(C)C)cc32)no1
 : i	1.07
[36] COc1ccccc1Nc1c2c(nc3ncnn13)CCC2
 : i	-0.56
[37] O=C1CC(N2CCN(c3ccccc3Cl)CC2)C(=O)N1c1ccccc1 (stereo unspecified)
 : i	-0.92
[38] CN(C)S(=O)(=O)c1ccc2c(c1)cc(C(=O)NCCCN1CCc3ccccc3C1)n2C
 : i	-0.65
[39] CCOC(=O)c1nc(NC2CC2)c2c(-c3ccc(F)cc3)noc2n1
 : i	0.36
[40] Cc1ccc(-c2ccc(SCc3nc(-c4ccc5c(c4)OCO5)no3)nn2)cc1C
 : i	-0.01
[41] Cc1cccc2sc(NC(=O)NC3CC(=O)N(c4ccc5c(c4)OCCO5)C3)nc12 (stereo unspecified)
 : i	-0.06
[42] CCOC(=O)c1ccc2[nH]cc(S(=O)(=O)c3ccc(C)cc3)c(=O)c2c1
 : i	-0.14
[43] COc1ccc(S(=O)(=O)NC2COc3ccc(Br)cc3C2)cc1OC (stereo unspecified)
 : i	-1.09
[44] CCOC(=O)c1c(S(=O)(=O)NCC(=O)Nc2ccccc2F)c(C)n(CC)c1C
 : i	-0.61
[45] CC(C)n1c(N2CCN(C(=O)C3CCCO3)CC2)cc(=O)n(C(C)C)c1=O (stereo unspecified)
 : i	0.08
[46] CCC(C)(C)NC(=O)CN(C)S(=O)(=O)c1ccc2c(c1)C(C)(C)C(=O)N2C
 : i	0.45
[47] O=C1C[C@H](c2ccc(O)cc2)Oc2cc(O)cc(O)c21
 : i	0.43
[48] CCc1ccc(NC(=O)Nc2cc3sccc3n2C)cc1
 : i	-1.38
[49] O=C(NC1CCCCC1)c1nc[nH]c1C(=O)NCC1CCCCC1
 : i	-0.81
[50] CCc1ccccc1NC(=O)CSc1nc2ncccc2[nH]1
 : i	-1.59
[51] Cc1ccccc1Cn1nc2c(S(=O)(=O)N3CCc4ccccc4C3)cccn2c1=O
 : i	0.38
[52] Cc1ccc(CN2CCCC2c2cc(C(C)C)on2)s1 (stereo unspecified)
 : i	0.94
[53] COc1ccccc1-c1c(C)nn2c(SCC(=O)NCc3cccnc3)cc(C)nc12
 : i	-1.51
[54] N#CC(=C(\N)Sc1ccccc1N)/C(C#N)=C(/N)Sc1ccccc1N
 : i	0.45
[55] O=C1N2CCCc3cccc(c32)C12Nc1ccccc1S2 (stereo unspecified)
 : i	0.66
[56] Cc1nn(-c2ccc3nncn3n2)c2c1C(c1cc(Br)ccc1F)CC(=O)N2 (stereo unspecified)
 : i	-1.31
[57] C=CCOC(=O)C1=C(C)NC(C)=C(C(=O)OCC=C)C1c1ccccc1Cl
 : i	0.47
[58] CCC(=O)Nc1ccc(S(=O)(=O)N2CSC[C@@H]2C(=O)NCc2csc(C)n2)cc1
 : i	-1.43
[59] CCOc1ccc(-c2cc3c(SCC(C)C)nccn3n2)cc1
 : i	0.33
[60] NC(=O)c1ccccc1
 : i	0.01

# Next structures.
# Every second line gives: Choline anaer gr	Choline anaer gr early
[61] COc1cccc(NC(=O)Nc2cccc(C)n2)c1
 : i	0.92
[62] COC(=O)c1ccc(NC(=O)Cn2c(=O)nc(-c3ccccc3)c3ccccc32)cc1
 : i	-0.16
[63] O=C(CSc1nc2ncccc2n2cccc12)NCc1cccnc1
 : i	0.08
[64] O=C(C1CCN(c2nc3ccsc3c(=O)n2-c2ccccc2)CC1)N1CCN(c2ccccc2)CC1
 : i	-0.17
[65] O=C(CSc1ccc(N2CCCC2)nn1)Nc1ccc(Cl)cc1
 : i	-3.02
[66] Cc1ccccc1NS(=O)(=O)c1cc(-c2cc(C(F)(F)F)on2)sc1C
 : i	0.35
[67] COC(=O)[C@@H](N)CSC/C=C(\C)CC/C=C(\C)CCC=C(C)C
 : i	0.37
[68] Cc1nn(-c2ccc(-c3noc(C4CCC4)n3)cc2)cc1C(=O)Nc1ccc(-c2ccno2)cc1
 : i	0.46
[69] Cc1cc(C2CCCN2C(=O)C(C)(C)C)no1 (stereo unspecified)
 : i	-0.74
[70] Cc1nc(Oc2cccc(Cl)c2)c2c(C)c(C)sc2n1
 : i	-0.36
[71] Cc1cc(NCCOCCO)n2nc(-c3ccc(Cl)cc3)c(C)c2n1
 : i	-0.64
[72] O=S(=O)(NC1CCCC1)c1ccc(-c2nnc(C3CC3)o2)s1
 : i	-0.22
[73] O=c1n(Cc2ccccc2F)nc2c(S(=O)(=O)N3CCCCCC3)cccn12
 : i	0.18
[74] O=C(CSc1nnc(NC(=O)NC2CCCCC2)s1)Nc1ccccc1F
 : i	-0.89
[75] Cc1cccc(CNC2=NCCNC23CCN(S(=O)(=O)c2ccccc2)CC3)c1
 : i	-0.43
[76] CCc1ccc(N(C)S(=O)(=O)c2ccc3[nH]cc(C(=O)N4CCC(C)CC4)c(=O)c3c2)cc1
 : i	1.31
[77] Cc1ccccc1-c1noc(-c2cn(Cc3ccc(NC(=O)c4ccc5c(c4)OCO5)cc3)cn2)n1
 : i	1.2
[78] CCCn1nc2ccc(S(=O)(=O)N3CCC(C)CC3)cn2c1=O
 : i	-0.92
[79] Cc1sc(-c2nnc(C3CC3)o2)cc1NS(C)(=O)=O
 : i	-1.83
[80] COc1ccc(-c2cnc3cc(-c4ccc(Cl)cc4)nn3c2N)cc1OC
 : i	-0.4
[81] CCN(Cc1cc2cc(C)ccc2[nH]c1=O)S(C)(=O)=O
 : i	0.04
[82] Cc1ccc(-c2noc(-c3cn(CC(=O)Nc4c(C)cccc4C)c4nc(C)ccc4c3=O)n2)cc1
 : i	0.44
[83] O=C(COc1ccc(-c2cnc3ccccc3n2)cc1)NCc1ccccc1
 : i	-0.27
[84] O=S(=O)(c1ccc2c(c1)CCCC2)N1CCCn2nc(-c3ccncc3)cc2C1
 : i	-0.42
[85] COc1ccc(-c2nc(S(=O)(=O)c3ccccc3)c(N3CCC(C)CC3)o2)cc1
 : i	0.1
[86] Cc1ccc(N2C(=O)CCS2(=O)=O)cc1S(=O)(=O)N1CCCCC1
 : i	0.44
[87] Clc1ccc(-c2noc(-c3ccc(NCc4ccc5c(c4)OCO5)nn3)n2)cc1
 : i	0.36
[88] Cc1cc(C2CCCN2Cc2cn[nH]c2-c2ccc(F)cc2)no1 (stereo unspecified)
 : i	-0.28
[89] O=C(Nc1ccc(Cl)cc1)c1cnn(-c2ccc(F)cc2)c1
 : i	0.17
[90] Cc1ccc(N(CC(=O)Nc2ccc(Cl)cc2C)S(=O)(=O)c2c(C)nn(C)c2C)cc1
 : i	0.09

# (list continues)
# Every second line gives: Choline anaer gr	Choline anaer gr early
[91] NC(=O)c1nc(-c2cccc(F)c2F)nc2c1n(Cc1ccccc1)c(=O)n2-c1ccc(F)cc1
 : i	0.17
[92] COc1ccccc1-c1nnc(C2CCN(S(=O)(=O)c3cccc(Cl)c3)CC2)o1
 : i	0.69
[93] CCn1nnc2cc(-c3noc(C4CC(=O)N(c5ccccc5)C4)n3)ccc21 (stereo unspecified)
 : i	0.75
[94] Cc1nc(-c2ccc(S(=O)(=O)NCC3CCCO3)cc2)co1 (stereo unspecified)
 : i	0.36
[95] CC(C)(C)c1ccc(C2CC(=O)NC3=C2C(=O)CCC3)cc1 (stereo unspecified)
 : i	-0.83
[96] COC(=O)Cn1c(C)cc(=O)n2nc(-c3ccccc3Cl)nc12
 : i	-1.17
[97] O=C(Nc1c2c(nn1-c1ccc(F)cc1)CSC2)c1ccc(Br)cc1
 : i	1.12
[98] CN(C)c1ccc([C@H]2N(c3ccc(Cl)c(Cl)c3)C(=O)[C@@H]3CCCN32)cc1
 : i	-1.03
[99] O=C(CN1C(=O)COc2cc(Cl)ccc21)NC1CC1
 : i	0.87
[100] CC(C)c1nnc(-c2cc3ccccc3n2CC(=O)N(C(C)C)C(C)C)o1
 : i	0.05
[101] O=C(Nc1ccc2c(c1)OCO2)C1CCCN(c2ncc(-c3ccc(F)cc3)cn2)C1 (stereo unspecified)
 : i	-0.2
[102] O=S(=O)(c1ccc(C2CCCCC2)cc1)N1CC(OCc2ccc(Cl)cc2)C1
 : i	2.3
[103] O=S(=O)(c1ccc2nc(Nc3cccc(F)c3)ccc2c1)N1CCOCC1
 : i	1.82
[104] O=C(NCc1c(-c2ccccc2)nc2n1CCS2)c1ccc(F)cc1F
 : i	0.67
[105] CC1=C(c2ccc(C)cc2)S(=O)(=O)N=C1N1CCCC1
 : i	-1.25
[106] CC1CCCCN1CCNS(=O)(=O)c1cc(-c2nc(C(C)(C)C)cs2)cs1 (stereo unspecified)
 : i	-0.6
[107] Cc1c(S(=O)(=O)NCc2cccnc2)cc(C(=O)N2CCCC2)n1C
 : i	-1.26
[108] Cc1cc(C(=O)Nc2ccccc2F)n[nH]1
 : i	-1.49
[109] Cc1cccc(-c2noc(-c3cccnc3N3CCC(C(=O)NCc4ccccc4F)CC3)n2)c1
 : i	0.62
[110] CCOC(=O)c1c(NC(=O)c2ccccc2F)sc(C(=O)Nc2ccccc2OCC)c1C
 : i	-1.51
[111] O=C(NCCc1c[nH]c2ccccc12)C1CCN(c2nc3ccccc3[nH]2)CC1
 : i	0.41
[112] COc1ccc2c(Nc3cc(OC)c(OC)c(OC)c3)c(C#N)cnc2c1
 : i	0.19
[113] CC(C)NC(=O)CCCCn1c(=O)c2ccccc2n(CC(=O)NCc2ccc(F)cc2)c1=O
 : i	1.45
[114] N=C(N)c1ccc(N2CCN(C3CCN(CC(=O)O)CC3)CC2)cc1
 : i	0.57
